Resorufin autofl – qHTS Assay for Spectroscopic Profiling in Resorufin Spectral Region; Compound fluorescence, resorufin region 547/598 nm, buffer; active compounds read high; max dye-equivalent concentration, M; actives 0.04% (n = 59,000); AID 588, 2007; active = above 10 nM dye equivalent; inconclusive = 1 to 10 nM; inactive = 1 nM or less; a few of its hits are not listed in these tables; note: highest value over a series up to 38 µM
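Dye-equivalent concentration values derive from comparing each well's 547/598 nm fluorescence against resorufin standards included on every plate. Incubation was 15 min at room temperature in 100 mM Tris, pH 8.0.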
AID923 – qHTS Assay for Allosteric/Competitive Inhibitors of Caspase-1: Spectroscopic Profiling in AFC Spectral Region. actives 1.1% (n = 75,000). Potency, µM (doses to about 57.5 µM), for the others: at the highest dose fluorescence increase, hits mostly activators. compound fluorescence, AFC spectral region (405/520 nm); almost no hit is shown here; active = well fitted activation curve with a large enough effect; inconclusive = small, poorly fitted or top-dose-only effect;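 note: potency is the fitted concentration of half-maximal effect; 0% is about no effect; scaled to a free AFC standard on each plate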
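Baseline compound fluorescence (AFC region, 405 nm ex/520 nm em) taken from the intercept of kinetic reads with 50 nM caspase-1 and 5 uM Ac-WEHD-AFC; normalized to an on-plate AFC standard curve; compounds titrated up to 57 uM.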
A647 autofl – qHTS Assay for Spectroscopic Profiling in A647 Spectral Region; max dye-equivalent concentration, M; 59,000 tested, under 10 active; Compound fluorescence, A647 channel (570/671 nm), Tris buffer; active means above 1 µM dye equivalent; inconclusive means 0.1 to 1 µM; inactive means 0.1 µM or less;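 note: values scaled relative to a standard on each plate; highest value over a series up to 38 µM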
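Fluorescence read (570 nm ex, 671 nm em) after 15 min RT incubation of compounds in 100 mM Tris buffer, pH 8.0; values expressed as dye-equivalent concentration against a six-point A647 standard series on each plate.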
TSHR ag – qHTS Assay for Agonists of the Thyroid Stimulating Hormone Receptor; Thyrotropin receptor (Homo sapiens), P16473; HEK293-CNG-TSHR cells (CNG channel as cAMP sensor), membrane potential dye, cAMP; Potency, µM (highest dose often 57.1 µM), inactives show at the top dose activation, actives largely listed as activators; actives 0.48% (n = 73,000); AID 926, 2007; active = well fitted activation curve of enough size with the parental cells flat; inconclusive = any curve in the parental cells; inactive = parental cells flat and receptor cells flat or falling; note: potency is the fitted concentration of half-maximal effect; % of control where 0% means no effect; weak receptor curves with flat parental cells got no call and are not listed
Target sequence (P16473 whole entry, looked up): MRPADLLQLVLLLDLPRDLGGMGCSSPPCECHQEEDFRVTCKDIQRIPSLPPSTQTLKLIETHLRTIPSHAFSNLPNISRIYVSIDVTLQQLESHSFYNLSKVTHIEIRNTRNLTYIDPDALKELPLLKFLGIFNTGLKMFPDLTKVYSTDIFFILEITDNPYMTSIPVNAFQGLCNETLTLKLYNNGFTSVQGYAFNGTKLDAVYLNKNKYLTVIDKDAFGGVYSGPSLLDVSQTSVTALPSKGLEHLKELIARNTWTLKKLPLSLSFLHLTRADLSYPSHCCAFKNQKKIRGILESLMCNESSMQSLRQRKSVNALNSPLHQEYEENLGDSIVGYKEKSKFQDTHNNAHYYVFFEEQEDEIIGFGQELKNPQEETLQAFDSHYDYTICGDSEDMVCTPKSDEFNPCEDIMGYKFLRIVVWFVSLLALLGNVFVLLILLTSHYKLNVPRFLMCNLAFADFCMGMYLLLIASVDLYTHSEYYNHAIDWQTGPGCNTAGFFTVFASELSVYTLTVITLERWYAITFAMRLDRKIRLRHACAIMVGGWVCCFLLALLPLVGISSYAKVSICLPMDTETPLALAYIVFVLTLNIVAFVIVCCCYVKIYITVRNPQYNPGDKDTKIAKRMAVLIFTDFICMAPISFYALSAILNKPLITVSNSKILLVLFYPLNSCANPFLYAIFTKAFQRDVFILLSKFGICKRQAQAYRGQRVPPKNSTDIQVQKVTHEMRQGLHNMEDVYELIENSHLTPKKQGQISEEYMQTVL
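HEK 293 cells stably expressing TSHR and a modified CNG channel, with CNG-only parental cells as counterscreen, were preloaded 60 min at room temperature with membrane potential dye containing 100 uM RO 20-1724. Compound exposure was 30 min, and depolarization was read as fluorescence at 590 nm.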
A488 fluor – qHTS Assay for Spectroscopic Profiling in A488 Spectral Region. actives 0.1% (n = 59,000). compound autofluorescence, A488 spectral region, dye equivalency; active compounds read high. max dye equivalency, M; active = above 10 nM dye equivalent; inconclusive = 1 to 10 nM; inactive = 1 nM or less; about half of its hits are not listed in these tables;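 note: highest value over a series up to 38 µM; compound alone in buffer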
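Readout is A488 dye-equivalent concentration, calibrated by a per-plate six-point Alexa 488 series. Compounds in 100 mM Tris buffer pH 8.0 were incubated 15 min at room temperature. Plates were imaged using 480 nm excitation/540 nm emission filters.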
* = called active by the depositor; i = inactive; u = inconclusive; x = no result given; & = joins results of further samples; [ ] = remark or other dose.

Each structure is followed by: A488 fluor | Resorufin autofl | AID923 | A647 autofl | TSHR ag
> CCCn1nnc(NC(=O)c2ccco2)n1
    i | i | -0.8% | 1e-09 | 2.1%
> CCC(NC(=O)Nc1ccc(O)cc1)(C(F)(F)F)C(F)(F)F
    i | i | x | 3.1e-09 | x
> Cc1cc(=O)oc2cc(OCC(=O)N3CCc4ccccc4C3)ccc12
    i | i | 0.5% | 2.85e-08 | 9.7%
> CCOC(=O)C(NC(=O)c1ccc(OC)cc1)(N1CCOCC1)C(F)(F)F (stereo not given)
    i | i | 1.0% | 6.3e-09 | 13.5%
> N#CCCN1CCN(S(=O)(=O)c2ccc(S(=O)(=O)N3CCCC3)cc2)CC1
    x | x | -2.0% | x | u
> CCOC(=O)CSc1nc2c(c(=O)[nH]c(=O)n2C)n1CCc1ccccc1
    i | i | 0.3% | 1e-09 | 7.9%
> CN1CCN(c2ncnc3c2[nH]c2ccc(F)cc23)CC1
    i | i | x | 4.59e-08 | x
> CCOC(=O)Cn1c(N2CCOCC2)nc2c1c(=O)[nH]c(=O)n2C
    i | i | 4.7% | 1.48e-08 | 0.0%
> O=C1c2ccccc2-c2ccc(C(=O)N3CCOCC3)cc21
    i | i | 0.0% | 1e-09 | 1.0%
> C=CCn1c(SC(C)C(=O)NCc2ccc3c(c2)OCO3)nnc1C1CCCCC1 (stereo not given)
    i | i | 0.3% | 6.5e-09 | u
> CCC(C)(C)n1nnnc1C(c1cccs1)N1CCN(Cc2ccccc2)CC1 (stereo not given)
    i | i | 0.8% | 3.47e-08 | u
> Cc1ccc(-n2cc(C(C)(C)C)[nH]c2=S)cc1
    i | i | 1.9% | 1e-09 | 9.1%
> O=C(c1ccc(Cc2nc3ccccc3[nH]2)cc1)N1CCOCC1
    x | x | 0.6% | x | 0.3%
> Cc1cc(S(=O)(=O)N2CCN(c3ccccc3C)CC2)ccc1F
    i | i | -0.2% | 4.23e-08 | x
> Cc1ccc(S(=O)(=O)N2CCOCC2)cc1C(=O)Nc1ccc(-c2cn3ccsc3n2)cc1
    i | i | 0.0% | 1.75e-08 | 29.6%
> O=C1N(Cc2ccccc2)CCCC12CCCN(Cc1ccccc1)C2=O
    x | x | 3.4% | x | 21.1%
> Cc1cc(C)n(-c2nc(NC(C)C)nc(NC(C)C)n2)n1
    i | i | 1.0% | 1.35e-08 | 5.9%
> CCn1c(SCC(=O)N2CCOCC2)nnc1-c1cccs1
    i | i | -2.0% | 7.6e-09 | 1.6%
> CCOC(=O)c1c(NC(=O)c2nc3n(n2)C(C(F)F)CC(C)N3)sc2c1CCCC2 (stereo not given)
    i | i | -1.5% | 1e-09 | 15.5%
> Nc1nnc(-c2ccccc2)c(-c2ccccc2)n1
    i | i | 0.7% | 4.08e-08 | 4.6%
> Fc1ccc(-c2nnc(SCc3ncc(-c4ccccc4)o3)n2CC2CCCO2)cc1 (stereo not given)
    i | i | -0.5% | 4.11e-08 | u
> Cc1cc(-c2ccccc2)n2ncc(C#N)c2n1
    x | x | 4.5% | x | 3.2%
> O=C(CSc1nc2ccccc2n1-c1ccccc1)NCC1CCCO1 (stereo not given)
    i | i | 0.8% | 3.35e-08 | 6.1%
> C/C(CCC(=O)OC[C@@H]1O[C@H](C#Cc2ccccc2)C=C[C@@H]1Oc1ccc(C)cc1)=N/O[C@@H](C)CN1CCCCc2nc(C)c(C)cc21
    x | x | 0.0%[11.5 µM] | x | 17.8%[11.4 µM]
> COc1ccc(NC(=O)COn2nnc3ccc(Cl)cc32)cc1OC
    i | i | 0.7% | 1.06e-08 | 9.0%
> CCC(C)C(=O)Nc1cc(C(=O)OC)cc(C(=O)OC)c1 (stereo not given)
    i | i | 2.9% | 4.5e-09 | 4.1%
> CC(O)CNc1nc2c(c(=O)n(C)c(=O)n2C)n1Cc1cccc(C(F)(F)F)c1 (stereo not given)
    i | i | x | 9.63e-08 | x
> Cc1ccc(C(=O)CSc2nnc(-c3cccs3)n2C)o1
    x | x | 4.1% | x | u
> Cc1c(NC2=NC3(CCCCC3)Cc3ccccc32)c(=O)n(-c2ccccc2)n1C
    x | x | 4.8% | x | -3.8%
> COc1ccc(NC(=O)CN(c2ccccc2)S(=O)(=O)N(C)C)cc1OC
    i | i | -0.3% | 1e-09 | x

Sorted by formula weight (falling): 3 of the compounds above.
Each structure is followed by: A488 fluor | Resorufin autofl | AID923 | A647 autofl | TSHR ag
> CC(O)CNc1nc2c(c(=O)n(C)c(=O)n2C)n1Cc1cccc(C(F)(F)F)c1 (stereo not given)
    i | i | x | 9.63e-08 | x
> Cc1ccc(C(=O)CSc2nnc(-c3cccs3)n2C)o1
    x | x | 4.1% | x | u
> CCCn1nnc(NC(=O)c2ccco2)n1
    i | i | -0.8% | 1e-09 | 2.1%

More entries
Each structure is followed by: A488 fluor | Resorufin autofl | AID923 | A647 autofl | TSHR ag
> CCOC(=O)C(C)Sc1nc(-c2ccco2)cc(C(F)(F)F)c1C#N (stereo not given)
    i | i | 4.1% | 1e-09 | u
> CCOC(=O)N1CCN(C(=O)c2ccc3c(=O)n4c(nc3c2)CCCCC4)CC1
    i | i | 0.4% | 3.18e-08 | -1.3%
> CC1CCN(S(=O)(=O)c2ccc3c(c2)oc(=O)n3CC(=O)NCc2ccc3c(c2)OCO3)CC1
    x | x | -5.2% | x | u
> CN(C(=O)c1ccc(Cl)c(S(=O)(=O)N2CCOCC2)c1)c1ccccc1C(=O)O
    i | i | -1.9% | 1.84e-08 | -0.3%
> CC(=O)N1CCN(c2ccc(NCc3ccccc3)cc2)CC1
    i | i | -0.1% | 2.94e-08 | -3.0%
> CCOC(=O)N1CCN(C(=O)CSCC(=O)Nc2nc(-c3ccc4c(c3)OCO4)cs2)CC1
    i | i | 2.2% | 1e-09 | 12.2%
> Cc1noc(/C=C/c2ccco2)c1S(=O)(=O)N1CCC(C(=O)N(C)Cc2ccccc2)CC1
    i | i | 1.2% | 1.05e-08 | 17.5%
> Cc1cc2c(c(=O)n1CC1CCCO1)C(c1ccc3c(c1)OCO3)C(C#N)=C(N)O2 (stereo not given)
    i | i | x | 1e-09 | x
> Clc1ccc(OCCCn2cncn2)cc1Cl
    i | i | -0.9% | 2.84e-08 | 4.5%
> Cc1ccc2[nH]c(=O)c(CN(CCCN3CCOCC3)Cc3nnnn3C3CCCC3)cc2c1
    i | i | 8.8% | 3.52e-08 | 11.5%
> O=C(Cn1nc(C(=O)O)c2ccccc2c1=O)NCC1CCCO1 (stereo not given)
    i | i | 0.4% | 4.33e-08 | 3.1%
> CCOC(=O)C1=C(C)N=C2SC(CC)C(=O)N2C1c1ccc(OC(C)=O)c(OCC)c1 (stereo not given)
    i | i | 1.5% | 1e-09 | 11.0%
> CN(C)CCNC(=O)c1ccc(Cc2nc3ccccc3[nH]2)cc1
    x | x | 2.6% | x | -2.0%
> O=C(NCC(=O)N(CCc1ccccc1)C(C(=O)NC1CCCCC1)c1ccncc1)c1ccco1 (stereo not given)
    i | i | -1.0% | 1e-09 | 11.7%
> Cc1ccccc1-n1nc2c(c1NC(=O)c1ccc(S(=O)(=O)N(C)C)cc1)CSC2
    i | i | -0.6% | 1.62e-08 | 10.4%[11.4 µM]
> O=S(=O)(c1ccccc1)c1nc(Nc2ccccc2N2CCOCC2)sc1Cl
    i | i | 2.1% | 1e-09 | u
> COc1ccc(C(=O)N2CCC[C@@]3(CCN(c4ccccc4)C3)C2)cc1
    i | i | 3.2% | 2.45e-08 | u
> O=C(CC1NC(=O)NC1=O)NC1(C(=O)NC2CCCCC2)CCCCC1 (stereo not given)
    i | i | 0.4% | 1.4e-08 | 3.3%
> O=C1OC(=O)[C@@H]2[C@@H]1[C@@H]1CC[C@H]2O1
    i | i | -3.8% | 1e-09&4.7e-08 | -0.2%&5.7%
> CCOC(=O)c1ccc(NC(=O)Nc2ccc(S(N)(=O)=O)cc2)cc1
    i | i | -3.7% | 1.78e-08 | -1.5%
> O=S(=O)(c1ccc(-c2csc(-c3cccnc3)n2)cc1)N1CCCCC1
    i | i | -0.4% | 1e-09 | 9.5%
> Cc1nc2ncnn2c(C)c1CCC(=O)Nc1csc(N)n1
    i | i | -0.6% | 3.16e-08 | 6.7%
> CCOC(=O)c1c(C)c(C(=O)NC(C)COC)c(C)n1C (stereo not given)
    i | i | 0.2% | 3.2e-09 | 4.1%[11.4 µM]
> COc1ccc(-c2c(=O)n(OCc3ccccn3)c3ccccc3[n+]2[O-])cc1OC
    i | i | 1.9% | 1.26e-08 | 3.3%
> Cc1ccc2oc(=O)c3cnn(CC(=O)NCCN4CCOCC4)c3c2c1
    x | x | -1.2% | x | -2.0%
> CC(C)CN1CCc2nc(-c3ccccc3)c3c(c2C1)COC(C)C3 (stereo not given)
    x | x | -2.3%[11.5 µM] | x | -2.8%[11.4 µM]
> COc1nc(N2CCCCCC2)nc(N2CCCCCC2)n1
    i | i | 1.7% | 3.31e-08 | 0.2%[11.4 µM]
> CCCCOC(=O)Nc1nnc(CCOCC)s1
    i | i | 6.8% | 1e-09 | x
> COc1ccc(-n2nc3c(c2NC(=O)c2c(-c4ccccc4Cl)noc2C)CS(=O)(=O)C3)cc1
    i | i | -0.1% | 1.2e-09 | u
> C/C(=N\O)C(C)/[N+]([O-])=C/c1nc(C)c(C)n1O (stereo not given)
    i | i | -0.4% | 1e-09 | 5.5%
> CCC(=O)N(Cc1cc2c(C)ccc(C)c2[nH]c1=O)C1CCCCC1
    i | i | -1.7% | 2.04e-08 | 1.9%
> COC(=O)C1=NOC2(C=C(Br)C(OC)=C(Br)C2=O)C1 (stereo not given)
    x | x | -0.7%[11.5 µM] | x | -2.3%[11.4 µM]
> CC(Oc1ccc(Br)cc1)C(=O)NCc1cccnc1 (stereo not given)
    x | x | 2.6% | x | 0.3%
> Cc1ccc(C)c(-n2c(Cc3cc(=O)[nH]c(=O)[nH]3)nnc2SC(C)C)c1
    x | x | 2.0% | x | 3.2%
> CCNc1ncc2nc(-c3cn(C)c4ccccc34)c(=O)n(C)c2n1
    i | i | 19.7% | 3.98e-08 | 6.6%
> O=c1[nH]c2cc(Cl)ccc2n1-c1ccccc1
    i | i | -0.6% | 2.43e-08 | -1.0%
> O=C(c1ccc(F)cc1)C1CCN(CCn2c(=S)[nH]c3ccccc3c2=O)CC1
    x | x | -0.5% | x | -36.7%[inhibitor]
> O=C(Nc1cccc(F)c1)N1CC2(CCN(S(=O)(=O)c3ccccc3)CC2)C1
    i | i | -0.2% | 4.7e-09 | 6.7%
> C[C@H](NC(=O)NCCc1ccccc1)C(=O)O
    i | i | 2.4% | 2.6e-08 | u
> Nc1cc(-c2ccco2)no1
    i | i | 1.3% | 2.9e-09 | 3.8%
> CC(=O)Nc1ccc(S(=O)(=O)NC(CC(=O)NCCC2=CCCCC2)C(C)C)cc1 (stereo not given)
    x | x | 3.0% | x | -3.9%
> CCOC(=O)N1CCN(C(=O)CSCC(=O)Nc2nc(-c3ccc(Cl)s3)cs2)CC1
    i | i | 0.1% | 1e-09 | u
> CCOC(=O)c1ccc(NC(=O)C2CCCO2)cc1 (stereo not given)
    i | i | 1.8% | 1e-09 | 1.2%
> Cn1c(=O)c2c(nc(CN3CCC(C(N)=O)CC3)n2Cc2c(F)cccc2Cl)n(C)c1=O
    i | i | 4.7% | 2.19e-08 | 2.1%
> O=C(c1coc2ccc(O)cc12)C1CC1
    x | x | 0.2% | x | u
> O=C(CN(C1CCCCC1)S(=O)(=O)c1ccc(F)cc1)NCCCO
    x | x | 1.1% | x | 6.3%
> O=C(c1cc(-c2ccc(O)cc2)on1)N1CCCc2ccccc21
    x | x | 2.9% | x | u
> O=C(NCN1CCc2ccccc2C1)c1cnccn1
    i | i | -0.5% | 2.67e-08 | -2.4%

Some of the compounds tested; count on the stated rates, not on these rows.
